High-throughput results (PubChem BioAssay)
MT1-MMP reporter: inhibitors of MT1-MMP promoter transcription, cell-based, luciferase reporter, luminescence (AID 618); MT1-MMP promoter luciferase reporter cells, luminescence; calls from a first round at 10 µM; hits with a dose series show EC50 in µM; 0.62% of 87,000 active;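 active = over half of the reporter light lost at 10 µM or EC50 under 50 µM; inactive = the rest and hits that failed the dose series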;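 note: actives suppress MT1-MMP promoter-driven transcription so potencies describe inhibitors; HT1080 fibrosarcoma cells; overnight exposure; toxic or luciferase-blocking compounds were not removed from the actives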
WNV NS2B-NS3 inh: inhibitors of WNV NS2B-NS3 protease, primary screen, biochemical, fluorogenic substrate; Genome polyprotein (West Nile virus), P06935; fluorogenic substrate Ex360/Em465; stronger effect = lower value; z-score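 (tested at a level between 10 and 100 µM)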; 0.18% of 65,000 active; AID 577, 2007;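 active = z-score at -3 or under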;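 note: score is relative to mean and spread of the compound wells of a plate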
Target sequence (P06935 1371-1501 limits assumed): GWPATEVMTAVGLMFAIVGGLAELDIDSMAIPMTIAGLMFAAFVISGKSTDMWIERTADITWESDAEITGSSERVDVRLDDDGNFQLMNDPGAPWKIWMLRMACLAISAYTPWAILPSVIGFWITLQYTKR
Target sequence (P06935 1502-1679 limits assumed): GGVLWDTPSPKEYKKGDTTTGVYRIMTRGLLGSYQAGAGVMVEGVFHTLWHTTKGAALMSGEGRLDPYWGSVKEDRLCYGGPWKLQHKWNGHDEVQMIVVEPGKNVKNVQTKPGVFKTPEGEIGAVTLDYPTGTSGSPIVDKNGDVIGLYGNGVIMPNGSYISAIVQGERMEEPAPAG
Hsc70: Hsc70 inhibitors, probe displacement, primary screen, biochemical, fluorescence polarization (AID 568); 83,000 tested, under 10 active; displacement, % at 20 µM, or IC50 in µM where a hit was titrated; Hsc70 fluorescence polarization, probe displacement; higher % means a stronger effect; strong numbers were not always called active;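 active = displacement above 50% without optical interference and an IC50 on retest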;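 note: ATPase domain with a fluorescein-tagged ATP probe; 0% = vehicle and 100% = excess ADP; read after one hour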
* marks the source's active call; other numbers are inactive results; i = inactive; . = not tested or not shown; + = active, no number.

#	mol	MT1-MMP reporter	WNV NS2B-NS3 inh	Hsc70
1	O=C(CN1C(=O)C2CCc3[nH]c4ccccc4c3C2C1=O)N1CCCC1 (centres undefined)	i	-1.1	4.9%
2	COC(C)(C)c1cc(C(C)(C)C)nc(N)n1	i	-0.72	6.7%
3	COc1ccccc1CC(=O)NCc1ccc2c(c1)OCO2	i	-0.89	6.0%
4	COc1ccccc1OCCNC(=O)c1ccc(S(=O)(=O)N(C)C)cc1	i	1.5	-1.2%
5	O=C(Nc1ccc(Cl)cc1)OCc1ccccn1	i	.	-0.6%
6	CCCCOc1ccccc1C(=O)NCCCCCC(=O)O	i	1.1	-2.1%
7	CN(Cc1ccccc1)C1CC(=O)N(c2ccc(C(=O)O)cc2)C1=O (centres undefined)	i	-0.12	-4.4%
8	O=C(CN(C(=O)CCC(=O)Nc1nccs1)c1cccc(F)c1)NCC1CCCO1 (centres undefined)	i	1.1	2.2%
9	Cc1cc(NC(=O)CN2CCCCCCC2)no1	i	1.2	-4.2%
10	Cn1ccnc1SCC(=O)Nc1sccc1C#N	i	-0.83	-8.5%
11	CCCn1c(SCC(=O)Nc2nccs2)nnc1-c1cccnc1	i	0.67	-4.6%
12	O=C(NC1CCS(=O)(=O)C1)c1ccc(-c2ccc(Br)cc2)o1 (centres undefined)	i	-0.84	-4.8%
13	COC(=O)c1c(/N=C/N(C)C)sc2c1CCN(c1ncc(C(F)(F)F)cc1Cl)C2	i	.	-1.4%
14	CC(C)CN=c1cc(-c2ccccc2)oc2ccc(Cl)cc12	i	.	-2.6%
15	O=C(Cn1cnc2ccccc2c1=O)N1CCOCC1	i	.	3.6%
16	S=c1[nH]nc(-c2ccncc2)n1Cc1ccccc1	i	-0.02	-1.4%
17	Fc1ccc(Cn2nnnc2C(c2cccs2)N2CCCCCC2)cc1 (centres undefined)	i	-0.9	-2.6%
18	O=C(O)C1C2C=CC(C2)C1C(=O)NCc1ccc2c(c1)OCO2 (centres undefined)	i	0.36	-2.4%
19	O=C(O)C1CC=CCC1C(=O)Nc1ccc2c(c1)OCCO2 (centres undefined)	i	.	-1.8%
20	COc1nc(NCCC2=CCCCC2)nc(OC)n1	i	-0.06	-1.0%
21	O=C(CCCOc1ccc(Cl)cc1)N1CCCCCC1	i	-0.33	-7.5%
22	NC1=NC(=Nc2ccccc2)c2ccccc21	i	-0.2	-2.4%
23	Cc1ccc(-n2nc3c(c2NC(=O)c2ccc(S(=O)(=O)N4CCOCC4)cc2)CSC3)c(C)c1	i	-1.1	-1.6%
24	NC(=O)c1ccc(Br)c(S(=O)(=O)N2CCCCC2)c1	i	1.1	-8.4%
25	N#Cc1c(-c2ccccc2)cc(C2CC2)nc1N	i	1.9	-0.9%
26	Nc1nc(SCC(=O)N2CCCC2)[nH]c(=O)c1-c1ccccc1	i	-0.45	0.9%
27	COc1cccc(-n2nnc3c(=O)n(Cc4ccc(Cl)cc4)cnc32)c1	i	0.53	3.0%
28	Nc1ccc2oc(-c3cccs3)nc2c1	i	-1.1	7.2%
29	CC(NC(=O)CN1C(=O)COc2ccccc21)c1ccccc1 (centres undefined)	i	-1.1	-4.3%
30	COc1cccc(C(=O)CSc2nnc(COc3cccc4cccnc34)o2)c1	i	1.2	0.7%
31	CCOC(=O)N1CCN(c2c(N3CCc4ccccc4C3)c(=O)c2=O)CC1	i	0.34	7.7%
32	CC1(C)CC(=O)C=C(N2CCCC2)C1	i	.	3.3%
33	CC1(C)CC(CCNC(=O)c2ccco2)CC(C)(C)N1	i	0.24	4.8%
34	COc1ccc(C(=O)NCCN2CCCC2)cc1OC	i	.	-1.3%
35	CCCOc1ccc(C(C)(O)CN2CCOCC2)cc1 (centres undefined)	i	0.44	-5.5%
36	COc1c(C)cc(Br)cc1C(=O)O	i	0.7	0.3%
37	CCOC(=O)C1CCN(C(=O)CN(Cc2ccccc2)S(C)(=O)=O)CC1	i	-0.58	-8.0%
38	CCOC(=O)Cn1cnc2c(C#N)c3n(c2c1=O)CCCCC3	i	0.61	7.2%
39	c1ccc(Cn2c(SCc3cn4cccnc4n3)nnc2-c2ccco2)cc1	i	-0.92	-8.1%
40	CCOC(=O)C1CCN(S(=O)(=O)C(F)(F)c2nc3ccccc3s2)CC1	i	-0.4	-1.2%
41	Cc1ccc(S(=O)(=O)Oc2ccc(/C=N/NC(=O)c3nn(C)cc3Cl)cc2)cc1	i	.	-0.8%
42	O=C(NCCCN=C1NS(=O)(=O)c2ccccc21)c1ccco1	i	.	1.3%
43	CC(C)OCCCn1c(=S)[nH]c2ccc(N3CCOCC3)cc2c1=O	i	1.4	-3.0%
44	CC1(C(=O)NC2CCCCCCC2)CCC(=O)N1Cc1cccnc1 (centres undefined)	i	-0.26	0.5%
45	CC(C(=O)Nc1cccnc1)N1C(=O)C2C3C=CC(C3)C2C1=O (centres undefined)	i	0.99	-0.7%
46	Cc1noc(C(=O)N2CCN(c3ccc(F)cc3)CC2)c1Cl	i	-1	-2.9%
47	COc1ccc(CCNC(=O)C2CCN(S(=O)(=O)N3CCCCCC3)CC2)cc1OC	i	-0.63	-1.8%
48	COc1cc(C2C(C(=O)c3sc(C)nc3C)=C(O)C(=O)N2CCN(C)C)cc(OC)c1OC (centres undefined)	i	-0.18	3.1%
49	O=C(CSc1nnc(-c2ccccc2)o1)Nc1ccccc1F	0.82µM*	-0.01	5.1%
50	CCCC(=O)Nc1cc(=O)[nH]c2ncnn12	i	0.96	0.0%
51	CCN(CC)CCCN(C(=O)c1cccs1)c1nc(-c2ccc(OC)cc2)cs1	i	-0.38	0.0%
52	CCOc1ccc(NC(=O)CN2CCN(CC(=O)c3ccc(OC)c(OC)c3)CC2)cc1	i	0.87	-1.0%
53	COc1ccc(CCn2c(-c3ccco3)nc3nc4ccccc4nc32)cc1	i	0.35	-14%
54	COC(=O)c1ccc2c(=O)n(CCCCCC(=O)N3CCN(c4ccccc4)CC3)c(=O)[nH]c2c1	i	0.27	-10%
55	Oc1ccccc1C=NC1=NN(c2cccc(C(F)(F)F)c2)CC1	i	.	4.1%
56	COC(=O)CSc1nc2ccccc2o1	i	-0.26	5.1%
57	O=C(Nc1ccc2oc(-c3ccc(F)cc3)nc2c1)c1ccccc1F	i	-0.14	-3.0%
58	Cc1c(NC(=O)Cn2[nH]c(=O)c3ccccc3c2=O)c(=O)n(-c2ccccc2)n1C	i	.	-1.2%
59	Cc1sc2nc(CN3CCOCC3)nc(NS(=O)(=O)c3ccc4c(c3)OCCO4)c2c1C	i	-0.79	-9.3%
60	CCCC(=O)O[C@H]1C[C@@H](C)N(C(=O)c2ccccc2)c2ccc(C)cc21	i	.	2.5%

Carrying on:
#	mol	MT1-MMP reporter	WNV NS2B-NS3 inh	Hsc70
61	COC(=O)Cn1c(=N)n(CCN2CCCCC2)c2ccccc21	i	-1.9	-3.7%
62	O=C(CCOc1ccccc1)Nc1ccc(S(=O)(=O)N2CCCC2)cc1	i	-0.29	-0.4%
63	Cc1cccc(NC(=O)CSc2nccn2C)c1	i	.	3.9%
64	Cc1ccc2nc3ccc(N4CCCC4)nn3c(=O)c2c1	i	-0.58	-8.8%
65	Cn1c(=O)c2c(nc(NCCCN3CCOCC3)n2Cc2ccc(Cl)cc2Cl)n(C)c1=O	i	0.16	10%
66	NC(=O)CSc1nc(O)cc(=O)n1-c1ccccc1	i	0.69	-7.1%
67	CCCCOc1ccccc1/C=c1/sc2nc(-c3oc4ccccc4c3C)nn2c1=O	i	-0.37	-47%
68	CN(C)CCNS(=O)(=O)c1ccc(Cl)cc1	i	1.9	1.9%
69	CC1CCc2[nH]nc(C(=O)O)c2C1 (centres undefined)	i	0.2	2.0%
70	COc1cc(SC)ccc1C(=O)Nc1ccccc1C#N	i	-0.99	7.1%
71	COc1cc(C2CC(=O)NC3=C2C(=O)CC(C)(C)C3)cc(OC)c1O (centres undefined)	i	-0.57	4.7%
72	O=C(Cn1c(C(F)(F)F)nc2ccccc21)N1CCCC1	i	.	2.5%

(73) Cc1c(C(=O)OCCOC(C)C)[nH]c2c1C(=O)CC(c1ccco1)C2 (centres undefined)
(74) COc1ccc(S(=O)(=O)Nc2ccc(CC#N)cc2)cc1
(75) CCCC(=O)NCc1cc(-c2nn(C)c(=O)c3ccccc23)ccc1C
(76) Cn1c(=O)c2c(nc(SCC(=O)NCC3CCCO3)n2C)n(C)c1=O (centres undefined)
(77) COc1ccc(S(=O)(=O)N2CCCCCC2)cc1
(78) O=C(COC(=O)c1ccccc1OCc1ccccc1Cl)NC1CC1
(79) COc1ccc(S(=O)(=O)NCCN2CCOCC2)c2ccccc12
(80) CC(=O)N1CCc2cc(C(=O)CN3CCN(c4cccc(Cl)c4)CC3)ccc21
(81) CC1CCCCC1NC(=O)c1cn(C)c2ccc(S(=O)(=O)N3CCCC3)cc2c1=O (centres undefined)
(82) CCCC(=O)Nc1ccc2c(c1)C(=O)N(CCC(=O)O)C2=O
assay / entry,73,74,75,76,77,78,79,80,81,82
MT1-MMP reporter,+,i,i,i,i,i,i,i,i,i
WNV NS2B-NS3 inh,-0.97,0.77,.,-1.1,.,.,1.5,0.0013,-0.26,0.64
Hsc70,3.9%,0.8%,2.3%,2.9%,0.3%,4.6%,1.9%,0.9%,-2.2%,-1.1%

(83) Cc1ccccc1CS(=O)(=O)Cc1ccc(C(=O)N2CCOCC2)o1
(84) COc1ccc(C2CC(=O)C3=C(C2)Nc2ccccc2N(C(C)=O)C3c2ccco2)cc1 (centres undefined)
(85) CC(C)COC(=O)Cn1cnc2ccc(Br)cc2c1=O
(86) CCOC(=O)N1CCN(Cc2nc(-c3cccc(C)c3)no2)CC1
(87) COC(=O)/C(C#N)=C1/SC=C(C)N1c1ccccc1
(88) OCCN(CCO)CC(O)COCCC12CC3CC(CC(C3)C1)C2 (centres undefined)
(89) CCOc1ccc(C(C)=O)cc1Cn1nc(C(=O)O)c2ccccc2c1=O
(90) CC(C)CCOc1ccc(C(=O)CCNC(C)C(=O)O)cc1 (centres undefined)
(91) CCOc1ccc(CCN2C(=O)C3C4C=CC(C4)C3C2=O)cc1OCC (centres undefined)
(92) Cc1ccc(-c2[nH]nc3c2C(c2ccc(OC(=O)N4CCOCC4)cc2)C(C#N)=C(N)O3)cc1 (centres undefined)
assay / entry,83,84,85,86,87,88,89,90,91,92
MT1-MMP reporter,i,i,i,i,i,i,i,i,i,i
WNV NS2B-NS3 inh,0.9,1,-1.5,.,-0.31,.,0.4,-0.04,0.3,-0.47
Hsc70,-1.3%,1.8%,0.2%,4.5%,4.9%,-2.3%,-1.3%,0.6%,-1.6%,-5.3%

(93) O=C(CN1C(=O)c2cccnc2C1=O)c1ccccc1
(94) CCC(C)NC(=O)c1c(-c2cc(Cl)c(OC)c(Cl)c2)noc1C (centres undefined)
(95) O=C(Nc1ccc2c(c1)CCC2)C1COc2ccccc2O1 (centres undefined)
(96) O=S(=O)(c1ccc2ccccc2c1)N(CC(O)CN1CCOCC1)c1ccccc1 (centres undefined)
(97) O=C(NCCN1CCOCC1)c1ccc2ccccc2c1
(98) CC(C)C(NC(=O)C12CC3CC(CC(C3)C1)C2)C(=O)O (centres undefined)
(99) O=c1nc(N2CCCCC2)nc(Nc2ccccc2)[nH]1
(100) O=C(C[n+]1ccc(C(=O)N/N=C/c2ccc(Br)cc2)cc1)c1ccccc1
(101) O=C(NC12CC3CC(CC(C3)C1)C2)c1ccccc1O
(102) O=C(Nc1cccnc1)c1ccc(COc2cc(Cl)ccc2Cl)o1
assay / entry,93,94,95,96,97,98,99,100,101,102
MT1-MMP reporter,i,i,i,i,i,i,i,i,i,i
WNV NS2B-NS3 inh,.,0.27,0.95,0.05,.,-0.69,.,.,-0.5,.
Hsc70,-0.7%,8.3%,-2.4%,0.5%,-1.7%,2.0%,7.6%,-0.3%,4.4%,-3.1%

Rewritten with each value named: part of the list above.
[101] O=C(NC12CC3CC(CC(C3)C1)C2)c1ccccc1O
  MT1-MMP reporter: i
  WNV NS2B-NS3 inh: -0.5
  Hsc70: 4.4%

[88] OCCN(CCO)CC(O)COCCC12CC3CC(CC(C3)C1)C2 (centres undefined)
  MT1-MMP reporter: i
  WNV NS2B-NS3 inh: .
  Hsc70: -2.3%

[59] Cc1sc2nc(CN3CCOCC3)nc(NS(=O)(=O)c3ccc4c(c3)OCCO4)c2c1C
  MT1-MMP reporter: i
  WNV NS2B-NS3 inh: -0.79
  Hsc70: -9.3%

[72] O=C(Cn1c(C(F)(F)F)nc2ccccc21)N1CCCC1
  MT1-MMP reporter: i
  WNV NS2B-NS3 inh: .
  Hsc70: 2.5%

(further entries)
(103) CC(=O)Nc1nnc(SCC(=O)NC(C)(C)C)s1
(104) O=C(c1cc2ccccn2n1)N1CCN(Cc2ccccc2)CC1
(105) CC(C)C1N=C2c3ccccc3N=C(SCC(=O)NCCc3ccc(S(N)(=O)=O)cc3)N2C1=O (centres undefined)
(106) Cc1cc(OCC(=O)Nc2ccc(S(=O)(=O)N3CCN(C)CC3)cc2)ccc1Cl
(107) COc1nc(-c2ccccc2)ccc1-c1noc(-c2ccco2)n1
assay / entry,103,104,105,106,107
MT1-MMP reporter,i,i,i,i,i
WNV NS2B-NS3 inh,-0.24,1.6,0.39,.,-1.2
Hsc70,0.9%,-4.1%,-0.6%,0.7%,-19%
